Source: PubChem BioAssay
Cruzain Triton = qHTS Assay for Promiscuous and Specific Inhibitors of Cruzain (with detergent); Potency, µM, for inactives: max response, negative = inhibition, usual class: inhibitors; Cruzipain (Trypanosoma cruzi), P25779; 200,000 tested, 0.43% active; purified cruzain, Z-FR-AMC fluorescence, 0.01% Triton;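 further: plate controls were neutral wells for no effect and buffer without enzyme for full effect; nearly all actives have a fitted effect of over 40% in size; top concentration of the series not given in the record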
Target sequence (P25779 123-467 limits assumed): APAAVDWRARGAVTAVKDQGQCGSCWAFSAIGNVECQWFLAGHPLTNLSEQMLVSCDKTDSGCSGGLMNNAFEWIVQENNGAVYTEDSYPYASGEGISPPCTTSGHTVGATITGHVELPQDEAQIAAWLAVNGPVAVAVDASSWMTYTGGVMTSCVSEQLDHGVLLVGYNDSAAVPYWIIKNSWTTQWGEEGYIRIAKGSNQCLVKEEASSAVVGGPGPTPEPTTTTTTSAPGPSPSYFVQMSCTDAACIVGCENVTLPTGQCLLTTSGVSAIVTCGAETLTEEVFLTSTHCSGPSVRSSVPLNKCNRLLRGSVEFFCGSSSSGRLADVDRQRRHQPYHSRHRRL
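Enzyme 1.5 nM, Z-FR-AMC 2 uM, NaOAc 100 mM pH 5.5, DTT 5 mM, Triton X-100 0.01%; 15 min RT compound preincubation; kinetic ex360/em450, 60 s delta.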
Cruzain inh noDet = qHTS Assay for Promiscuous and Specific Inhibitors of Cruzain (without detergent). Cruzipain (Trypanosoma cruzi), P25779. purified cruzain, Z-FR-AMC fluorescence, no detergent. Potency, µM, inactives show max response, negative = inhibition, usual class: inhibitors. 200,000 tested, 2.3% active. AID 1476, 2009;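 further: plate controls were enzyme without inhibitor for no effect and buffer without enzyme for full effect; nearly all actives have a fitted effect of over 40% in size; top concentration of the series not given in the record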
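Detergent-free condition (0.00005% Triton X-100) in acetate buffer pH 5.5 with DTT. 1.5 nM enzyme and compound were pre-mixed 15 min, then 2 uM Z-FR-AMC substrate added; reaction progress from fluorescence change between first and third reads (60 s).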
2A StopGo = High Throughput Screening for Foot and Mouth Disease Virus Antivirals. human cells with a luciferase reporter of 2A StopGo recoding; control for the full effect not named in the record. Potency, µM (titrated, usually from 57.9 µM), for the others: at the highest dose signal change, negative = less light. 410,000 tested, 1.2% active; active = well fitted falling curve with a large enough effect; inconclusive = small, poorly fitted or top-dose-only effect; inactive = no such curve, though single readings can be large or run the other way; tested in HEK293T cells; further: nearly all actives have a fitted effect of over 45% in size; luciferase light after 4 h
* marks the source's active call; other numbers are inactive results; ? = inconclusive; & = joins results of further samples; [ ] = remark or other dose. Unless noted, the call rests on the fitted dose curve; in most records, active means well fitted curve in the direction sought with a large enough effect; inconclusive means small, poorly fitted or top-dose-only effect, or another doubt; inactive means no such curve, though single readings can be large; an effect the other way counts as inactive or inconclusive. Unless noted, on the % scale 0 is the no-effect control and ±100 the full control effect; potency means the concentration at half of the fitted maximal effect. These rows are one share of the data; the hit share may differ from the screen's.

SMILES	Cruzain Triton	Cruzain inh noDet	2A StopGo
CC(=O)OCC(=O)[C@@]1(O)CCC2C3CCC4=CC(=O)CC[C@]4(C)C3C(O)C[C@]21C (stereo partly drawn)	3.3%	-8%	-6%
N[C@@H](CSS(=O)(=O)O)C(=O)O	-4.5%	-4%	-7%&1%&-12%
CC(C)NC(=O)N1CCC2(CCNCC2)CC1	3.5%	-5%	1%
COC1C[C@@H](O[C@@H]2C(C)C(=O)OC(C)C(C)C(O)C(C)C(=O)[C@@]3(CO3)CC(C)C(OC3OC(C)CC(N(C)C)C3O)C2C)OC(C)[C@@H]1O (stereo partly drawn)	0.6%	3%	-3%
CCNc1ncc2nc(-c3ccc(OC)cc3)c(=O)n(CCC#N)c2n1	0.9%	25%	-6%
CCNc1ncc2nc(C)c(=O)n(C3CC3)c2n1	-1.3%	-12%	-15%
CN(C)c1ccc(-c2cncnc2Nc2ccccc2)cc1	-3.3%	-10%	-11%
COC(=O)/C(C)=C/CC12OC(C)(C)C3CC(C=C4C(=O)c5cc6c(c(CCC(C)(C)Cl)c5OC431)OC1(C)CCC(=C(C)C)C6C1)C2=O (stereo not drawn)	-7.7%	-10%	-9%
CCC1OC(=O)C(C)[C@@H](O[C@H]2C[C@@](C)(OC)C(O)C(C)O2)C(C)[C@@H](O[C@@H]2OC(C)CC(N(C)C)C2O)[C@@](C)(O)CC(C)CN(C)C(C)C(O)[C@]1(C)O (stereo partly drawn)	-0.4%	12%	20%
C[C@@]12CCC(OC(=O)c3ccccc3)CC1CCc1ccccc12 (stereo partly drawn)	-1.7%	-2%	-6%

Ordered by heavy-atom count (lowest first): 4 of the compounds above
SMILES	Cruzain Triton	Cruzain inh noDet	2A StopGo
C[C@@]12CCC(OC(=O)c3ccccc3)CC1CCc1ccccc12 (stereo partly drawn)	-1.7%	-2%	-6%
CCNc1ncc2nc(-c3ccc(OC)cc3)c(=O)n(CCC#N)c2n1	0.9%	25%	-6%
COC(=O)/C(C)=C/CC12OC(C)(C)C3CC(C=C4C(=O)c5cc6c(c(CCC(C)(C)Cl)c5OC431)OC1(C)CCC(=C(C)C)C6C1)C2=O (stereo not drawn)	-7.7%	-10%	-9%
COC1C[C@@H](O[C@@H]2C(C)C(=O)OC(C)C(C)C(O)C(C)C(=O)[C@@]3(CO3)CC(C)C(OC3OC(C)CC(N(C)C)C3O)C2C)OC(C)[C@@H]1O (stereo partly drawn)	0.6%	3%	-3%

Going on with the list:
SMILES	Cruzain Triton	Cruzain inh noDet	2A StopGo
Cn1c(=O)c(-c2cccc(C#N)c2)nc2cnc(Oc3ccccc3)nc21	-0.5%	-9%	-7%
Cc1cc(C)cc(C(=O)OC2C[C@H]3CC[C@@H](C2)N3C)c1 (stereo partly drawn)	0.3%	8%	-17%
O=C(c1cc(C(F)(F)F)cc(C(F)(F)F)c1)N1CCC[C@@]2(CCN(c3ncccn3)C2)C1	-1.8%	?	-15%
O=C(c1ccncc1)N1CCC2(CCCN(Cc3ccncc3)C2)CC1	3.1%	11%	-2%
CNC1C(O)C(O)C(CO)O[C@H]1OC1C(O[C@@H]2C(O)C(O)[C@@H](N=C(N)N)C(O)C2N=C(N)N)OC(C)[C@]1(O)C=O (stereo partly drawn)	1.1%	-9%	-8%
COc1ccc(NC(=O)N2CC[C@@]3(CCCN(C(=O)c4cccc(F)c4)C3)C2)cc1	0.8%	0%	4%
CC(C)=CCC/C(C)=C/CC/C(C)=C/CO	1.1%&3.1%	28%&2%	15%&2%
Cc1nc2cnc(OCc3ccccc3)nc2n(Cc2ccc(F)cc2)c1=O	0.8%	4%	-24%
COc1c(O)cc(O)cc1O	1.2%	-3%	11%
COc1cccc(Cn2c(=O)c(-c3cccs3)nc3cnc(N4CCN(C)CC4)nc32)c1	-0.9%	11%	13%
Cn1cc(-c2nc3cnc(N4CCNCC4)nc3n(C)c2=O)c2ccccc21	4.9%	-4%	-2%
CN1CCN(c2ncc3nc(-c4cc(F)cc(F)c4)c(=O)n(C4CC4)c3n2)CC1	-12%	?	-6%
Cn1cc(-c2nc3cncnc3n(Cc3ccccc3Cl)c2=O)c2ccccc21	4.8%	?	-1%
COC1=CC(=O)C(O)=C/C1=C\C=C\c1ccccc1	-13%	-9%	40µM*
COc1cccc(Nc2ncc3nc(-c4cccs4)c(=O)n(C[C@H]4CCCO4)c3n2)c1	-2.9%	-4%	-4%
COc1cccc(-c2nccc(NCc3ccccc3OC)n2)c1	-4.1%	0%	-7%
O=C(c1ccco1)N1CCC2(CC1)CN(Cc1cc(C(F)(F)F)cc(C(F)(F)F)c1)C2	2.6%	-2%	-20%
COc1ccccc1CNc1ncnc2ccc(-c3c(C)noc3C)cc12	-4.3%	2%	7%
CN(C)Cc1ccccc1-c1cncnc1NCc1ccccc1	7.2%	-2%	3%
COc1ccc(C(=O)N2CCC3(CCCN(c4ccc(-c5ccccc5)cc4)C3)CC2)cc1	-4.2%	-25%	-22%

Four neighbouring records already listed, for reference:
SMILES	Cruzain Triton	Cruzain inh noDet	2A StopGo
O=C(c1ccco1)N1CCC2(CC1)CN(Cc1cc(C(F)(F)F)cc(C(F)(F)F)c1)C2	2.6%	-2%	-20%
COc1ccccc1CNc1ncnc2ccc(-c3c(C)noc3C)cc12	-4.3%	2%	7%
CN(C)Cc1ccccc1-c1cncnc1NCc1ccccc1	7.2%	-2%	3%
COc1ccc(C(=O)N2CCC3(CCCN(c4ccc(-c5ccccc5)cc4)C3)CC2)cc1	-4.2%	-25%	-22%

More results
SMILES	Cruzain Triton	Cruzain inh noDet	2A StopGo
COCCn1c(=O)c(C)nc2cnc(Nc3ccccc3)nc21	-4.7%	-1%	-4%
CCOC(=O)C1(O)Oc2cc(OC)cc(OC)c2C(=O)C1c1ccccc1 (stereo not drawn)	-2.9%	-2%	28%
CC[N+](C)(CC)CCC[n+]1c(-c2ccccc2)c2cc(N)ccc2c2ccc(N)cc21	-4.0%	-6%	?
OC[C@@H]1O[C@@H](n2cnc3c(N[C@H]4CCC[C@@H]4O)ncnc32)[C@H](O)[C@H]1O	2.3%	10%	-6%
COc1cccc(Nc2ncc3nc(-c4cn(C)c5ccccc45)c(=O)n(C[C@H]4CCCO4)c3n2)c1	-1.1%	-4%	-16%
Cc1nc(-c2coc3c(O)c(O)ccc3c2=O)cs1	-2.7%	-12%	26%
COC(=O)N1CCC2(CCCN(C(=O)Nc3ccccc3)C2)CC1	1.2%	-16%	1%
COc1cc2c(cc1OC)[C@@H]1C(=O)c3ccc(OC)c(CC=C(C)C)c3OC1CO2 (stereo partly drawn)	-12%	?	?
Cn1cccc1C(=O)N1CCC[C@@]2(CCN(Cc3cc(C(F)(F)F)cc(C(F)(F)F)c3)C2)C1	-2.3%	23%	-21%
COC(=O)c1c(C)c2c(c(C)c1O)OC(=O)c1c(C)c(Cl)c(O)c(Cl)c1O2	-5.6%&-2.3%	-7%&-8%	-29%&-17%
CN(C)C(=O)c1ccc(-c2cncnc2NCCN2CCOCC2)cc1	-1.3%	-4%	-3%
Cc1cnc(CNc2ncncc2-c2ccoc2)cn1	1.1%	-1%	-13%
COCC(=O)N1CCC2(CC1)CN(Cc1nccs1)C2	0.7%	5%	-5%
Cc1cnc(CNc2ncnc3ccc(-c4ccc(N(C)C)cc4)cc23)cn1	-3.6%	-2%	-7%
CN(Cc1ccco1)c1ncncc1-c1ccoc1	-1.9%	4%	-20%
COc1ccc(CNc2ncncc2-c2ccc3c(c2)OCO3)c(OC)c1	-4.5%	10%	-11%
N#Cc1cccc(NC(=O)N2CC[C@@]3(CCCN(C(=O)c4csnn4)C3)C2)c1	0.0%	2%	7%
Cc1cnc(CNc2ccnc(-c3c(C)noc3C)n2)cn1	-2.4%	-17%	-5%
O=C(c1cccc(F)c1)N1CCC2(CCN(Cc3cc(C(F)(F)F)cc(C(F)(F)F)c3)CC2)CC1	6.2%	-4%	-15%
NC(=O)c1ccccc1-c1nc(-n2ccnc2)c2ccccc2n1	1.1%	-2%	0%
CC1(C)C=CC(=O)[C@]2(C)C1CC(=O)[C@]1(C)C2CC[C@@]2(C)C(c3ccoc3)OC(=O)C3OC321 (stereo partly drawn)	-14%	-17%	6%
N#CCCn1c(=O)c(-c2ccc(Cl)cc2)nc2cnc(OCc3ccccc3)nc21	-0.1%	21%	-8%
COc1cc(N)c(Cl)cc1C(=O)OCCCN1CCCCC1	2.0%	-7%	-16%
CCOC(=O)CCCCCCCCCCCCC1C=CCC1 (stereo not drawn)	1.7%	-2%	3%
COc1ccccc1-c1cncnc1NCc1cccnc1	1.2%	4%	9%
COCCNc1nc(-c2ccc(N(C)C)cc2)nc2ccccc12	-7.9%	0%	5%
CCC(C)C(=O)c1c(O)c(C)c2oc3c(C)c(O)c(C(=O)C(C)CC)c(O)c3c2c1O (stereo not drawn)	-7.7%	-10%	-18%
COc1ccc(C(=O)N2CCC3(CC2)CCN(c2ccccc2)CC3)cc1	-2.4%	2%	?
COc1cccc(Cn2c(=O)cnc3cnc(N(C)C)nc32)c1	-8.0%	-9%	0%
Cc1nc2cnc(Nc3ccccc3)nc2n(C[C@H]2CCCO2)c1=O	0.0%	-10%	-13%
O=C(c1cccc(F)c1)N1CCC2(CC1)CCN(c1cccc(-c3ccccc3)c1)CC2	-1.3%	?	-16%
Cn1c(=O)c(-c2ccc(Cl)cc2)nc2cnc(Nc3ccccc3)nc21	-0.5%	0%	-10%
CCCCCCCCCCCCCCCCCCc1ccc(C(=O)/C=C\C(=O)O)cc1	1.8%	-1%	-25%
CCNc1ncc2nc(-c3ccccc3)c(=O)n(-c3ccc(OC)cc3)c2n1	3.5%	1%	3%
COc1ccccc1-c1cc(NCc2cnc(C)cn2)ncn1	-1.1%	-2%	-2%
CCNc1ncc2nc(-c3cccs3)c(=O)n(-c3ccc(OC)cc3)c2n1	1.2%	-4%	7%
NC(Cc1cnc[nH]1)C(=O)Nc1ccc2ccccc2c1 (stereo not drawn)	3.0%	-11%	41%[activator]
NCCC(=O)O	4.2%	2%	-5%&-9%
NC[C@H](CS(=O)(=O)O)c1ccc(Cl)cc1	-2.2%	4%	0%
CC(C)C1=CC2=CC[C@H]3[C@](C)(C(=O)O)CCC[C@]3(C)C2CC1 (stereo partly drawn)	-4.7%	16%	0%
N#CCCn1c(=O)c(-c2ccc(F)cc2)nc2cnc(Oc3cccc(Cl)c3)nc21	4.4%	-3%	-2%
CS(=O)(=O)N1CCC2(CC1)CN(C(=O)Nc1cccc(F)c1)C2	0.1%	-5%	-15%
CC(C)CCCC(C)C1CCC2C3=CC[C@@H]4CC(O)CC[C@@]4(C)C3CC[C@]21C (stereo partly drawn)	-1.1%	22%	51%[activator]
COC(=O)CC1C2(C)CC34OC5(C)O[C@@]6(C7/C(=C(/O)C(C)C)C(=O)OC(c8ccoc8)[C@]7(C)C(OC(C)=O)C(OC(C)=O)[C@]6(O5)[C@@]13C)C(OC(C)=O)[C@]4(O)C2OC(=O)C(C)C (stereo partly drawn)	-2.8%	?	-10%
CC(=O)N1CCC2(CC1)CCN(C(=O)Nc1cccc(F)c1)CC2	5.7%	-5%	0%
CC(=O)N(O)[C@@H]1c2cc(C#N)ccc2OC(C)(C)[C@H]1O	1.4%	-8%	-5%
CCCCCCCCCCCCCCCCOC[C@@H](O)COP(=O)([O-])OCC[N+](C)(C)C	1.6%	5%	-11%[6.7 µM]
FC(F)(F)c1ccccc1-c1ccc2ncnc(NC3CC3)c2c1	-5.3%	-9%	?
CC(=O)NCCNc1cc(-c2ccccc2C(F)(F)F)ncn1	1.8%	7%	-4%
COCCn1c(=O)c(CCc2ccccc2)nc2cnc(Nc3ccccc3)nc21	3.3%	-8%	22%

Carrying on:
SMILES	Cruzain Triton	Cruzain inh noDet	2A StopGo
COc1ccccc1-c1ccc2ncnc(N(C)Cc3ccco3)c2c1	-5.4%	3%	-28%
c1cc(CN2CC3(CCNCC3)C2)ccn1	-3.3%	2%	-9%
CC1(O)CC2C(CC1O)C2(C)C (stereo not drawn)	7.8%	-5%	23%
CC(=O)OC1CCC2(C)C3=C(CCC2C1(C)C)[C@@]1(C)CCC(C(C)CCC=C(C)C)[C@@]1(C)CC3 (stereo partly drawn)	3.1%	-6%	-6%
CC(C)CN1CCC2(CC1)CCN(S(C)(=O)=O)CC2	4.4%	-3%	1%
COc1ccc(-c2nc3cnc(Oc4ccccc4)nc3n(CCC#N)c2=O)cc1	7.1%	-11%	6%
CC(C)(C)c1cc(O)c(C(C)(C)C)cc1O	-7.3%	4%	-7%[146 µM]
CC1=CC(=O)C2C(C)(C)CCC[C@@]2(C)[C@@]1(O)CCc1ccoc1 (stereo partly drawn)	-7.1%	12%	-15%
Cc1nc2cnc(N3CCOCC3)nc2n(CCc2ccccc2)c1=O	-1.0%	11%	-15%
